StopGo RLuc = FMDV 2A StopGo reporter, Renilla signal; HEK cells with a luciferase reporter of 2A StopGo recoding; Potency, µM (series often up to 57.5 µM), for inactives: top-dose signal change, negative = less light; 0.32% of 120,000 active; AID 1745857; active means well fitted falling curve with a large enough effect; inconclusive means small, poorly fitted or top-dose-only effect; inactive means no such curve, though single readings can be large or run the other way; also: nearly all actives have a fitted effect of over 55% in size; overnight with compound
2A firefly = lowers the firefly signal of an FMDV 2A StopGo reporter; HEK cells with a luciferase reporter of 2A StopGo recoding; Potency, µM (highest dose often 57.5 µM), for the others: at the highest dose signal change, negative = less light; 0.23% of 120,000 active; AID 1745856; active = well fitted falling curve with a large enough effect; inconclusive = small, poorly fitted or top-dose-only effect; inactive = no such curve, though single readings can be large or run the other way; also: nearly all actives have a fitted effect of over 60% in size; overnight with compound
* hit, by the source's call; ? = inconclusive; & = joins results of further samples; [ ] = dose if it differs, or a comment. % is scaled to controls: 0 for no effect and ±100 for the full control effect; potency is read from the fitted curve at half-maximal effect. This is a subset (hit frequency here may not be typical).

SMILES	StopGo RLuc	2A firefly
O=C(OCC(=O)N1CCc2ccccc21)c1ccccc1C(=O)c1ccc(Cl)c([N+](=O)[O-])c1	10.5%	1.9%
CCN1c2cc(C)ccc2-n2cccc2C12CCN(C(=O)Nc1cc(OC)c(OC)c(OC)c1)CC2	-11.0%&-19.2%	-16.2%&-30.9%
Cc1ccc(C(=O)Nc2cccc3cccnc23)cc1Cl	-1.7%	32.9%[activator]
CCCNC(=O)CNC(=O)c1nn(-c2ccccc2)c(=O)c2ccccc12	4.7%	-8.5%
CCC(C)c1ccc(-c2c(C)sc(N)c2C#N)cc1 (centres undefined)	-4.8%	68.2%[activator]
O=C(O)c1ccc(/C=C/c2nc3cc(Cl)ccc3s2)cc1	-2.7%	0.0%
CS(=O)(=O)N1N=C(c2ccccc2)CC1c1ccc2nccnc2c1 (centres undefined)	125.0%[activator]	97.0%[activator]
CCc1nnc2c(NCc3ccccc3)nc3ccccc3n12	1.4%	-7.7%
Cc1ccc(CN2C(=O)c3oc4ccc(C)cc4c(=O)c3C2c2ccc(O)cc2)cc1 (centres undefined)	?	?
COc1ccc(-c2cc(C(=O)O)no2)cc1OC	0.0%	-13.2%
Cc1ccccc1NC(=O)C1CCN(S(=O)(=O)c2c(C)noc2/C=C/c2ccco2)CC1	-13.3%	-16.5%
CCOc1ccc(NC(=O)c2ccc3c(c2)c(C)c(C)n3Cc2ccc(F)cc2)cc1	1.2%	10.1%
CC(=O)NC(Cc1c[nH]c2ccccc12)C(=O)N1CCN(S(=O)(=O)c2ccccc2F)CC1 (centres undefined)	-9.3%	-18.1%
CCc1ccc(C(CNC(=O)c2nc(-c3ccccc3)oc2C)N(C)C)cc1 (centres undefined)	-12.6%	-13.8%
Cc1ccc(NC(=O)CN2C(=O)COc3ccc(S(=O)(=O)N4CCOCC4)cc32)c(Cl)c1	6.2%	-0.1%
COc1ccc(OCCSC2=NCC(C)(C)CN2)cc1	-8.3%	-10.4%
COc1ccccc1C(=O)CC1(O)C(=O)N(CC(N)=O)c2ccccc21 (centres undefined)	6.4%	-9.2%
Cc1ccn2cc(C(=O)N3CCN(c4cccc(Cl)c4)CC3)nc2c1	-20.0%	-11.4%
CCOc1ccc(OCC)c(NC(=O)c2cnc3c(-c4ccccc4)c(C)nn3c2C)c1	-13.7%	-16.1%
Cc1cccc(NC(=O)CC(C)c2ccccc2)c1 (centres undefined)	14.4%	24.1%
CC(C)CCn1c(N2CCN(Cc3ccccc3F)CC2)nc2c1c(=O)[nH]c(=O)n2C	12.3%	0.6%
O=C(NCC1CC1)c1ccc(F)cc1	3.0%	-3.7%
CCOc1ccc(NC(=O)CCNS(=O)(=O)c2cccc3nonc23)cc1	36.4%[activator]	-4.9%
O=C(NCc1ccccn1)C(=O)N1CCN(C(=O)c2cc3ccccc3[nH]2)CC1	-3.9%	-3.6%
COCCN1CCC(OC(C)=O)C(C)C1C (centres undefined)	20.2%	34.3%
COc1ccccc1N1CCN(S(=O)(=O)c2ccc(-n3cnnn3)cc2)CC1	-13.9%	-11.7%
CCCCN(CCCC)CCNC(=O)CN1C(=O)CSc2ccc(S(=O)(=O)N3CCOCC3)cc21	1.5%	-6.5%
COc1ccc(Oc2c(C(F)(F)F)oc3cc(OC(C)=O)ccc3c2=O)cc1	?	?
CCOC(=O)N1CCc2c(sc3c2c(=O)n(-c2ccc(CC)cc2)c(=O)n3CC(=O)c2ccc(F)cc2)C1	-11.6%	-14.8%
Cc1nc(-c2ccccn2)sc1C(=O)NC1CCC(C(F)(F)F)CC1 (centres undefined)	-0.9%[1.06 µM]	0.0%
CCOc1ccccc1C1C(C#N)=C(SCC(=O)Nc2ccc(C)cc2)NC2=C1C(=O)CCC2 (centres undefined)	22.7%	-8.9%
Cc1cccc(Cn2c(SCc3ccc(C(=O)NCCc4ccccc4)cc3)nc3cccnc32)c1	45.0%[activator]	76.1%[activator]
CCNCc1ccc(-c2ccc(C(F)(F)F)cc2)o1	-4.4%	24.9%
COc1ccnc2c1CCCCC2S(=O)c1nc2ccccc2[nH]1 (centres undefined)	-12.4%	-13.4%[11.5 µM]
O=C(Nc1ccccc1)Nc1ccc(NC(=O)c2ccc(Cl)cc2)cc1	-8.7%	-12.1%
CC(Sc1ccc2ccccc2n1)C(=O)Nc1ccc(C(N)=O)cc1 (centres undefined)	-5.4%	1.3%
Cc1cccc(NC(=O)c2cccc(N3CCCS3(=O)=O)c2)c1	-6.9%	161.5%[activator]
O=C(Cn1ncc2c([nH]c3ccccc32)c1=O)Nc1cc(F)ccc1F	-4.5%	-11.6%
Cc1ccc(F)cc1NC(=O)CCc1c[nH]c2ccccc12	-7.1%	7.3%
CCCCn1c2c(c(=O)[nH]c1=O)C(c1ccc(Br)cc1)C1=C(COC1=O)N2 (centres undefined)	-4.9%	-9.7%
Cc1cc(=O)n(CC(=O)Nc2cccc([N+](=O)[O-])c2)c(-n2nc(C)cc2C)n1	-2.5%	-22.3%
Cc1nn(C)c2sc(C(=O)N3CCN(S(=O)(=O)c4ccc(F)cc4F)CC3)cc12	?	?
Cc1ccc(-c2csc(Nc3ccc(O)c(C(=O)O)c3)n2)cc1	8.4%	0.0%
CC1C(=O)C2(CCCCC2)C(=O)OC1c1ccc(Cl)cc1 (centres undefined)	136.6%[activator]	43.1%[activator]
CC(C)CCC(C)(N)C(=O)O (centres undefined)	1.8%	-3.0%
CC(CCc1ccccc1)NCc1ccco1 (centres undefined)	-16.3%	-12.0%
CCOC(=O)/C=C1\OC2(O)CC(C1C(=O)OCC)[C@H]1CO[C@@H]2O1 (some centres undefined)	4.0%	-1.6%
Cc1ccc(-c2cc(C(=O)Nc3cc(C)on3)c3ccccc3n2)cc1	-17.2%	0.7%
CCC(CC)C(NC(C)=O)c1cccs1 (centres undefined)	-3.7%	25.0%
CCOc1ccc(/C=C/c2nc(C#N)c(N(C)Cc3ccccc3)o2)cc1	11.3%	22.6%
COc1cc(-c2noc(C3CCCN(S(=O)(=O)c4cccs4)C3)n2)ccc1OC(C)C (centres undefined)	16.9%	8.7%
Cc1ccc(Nc2nnc(SCC(=O)c3ccc(Cl)s3)s2)cc1C	18.7%	21.9%
CCc1ccc(C(=O)COC(=O)COc2ccc(Cl)c(C)c2)cc1	4.8%	8.8%
CSc1ccc(CCNC(=O)c2cc3cc(S(=O)(=O)N4CCCCC4)ccc3n2C)cc1	-31.3%	?
COCCOC(=O)C1=C(C)N=C2SCCC(=O)N2C1c1ccc(OCc2ccccc2)c(OC)c1 (centres undefined)	6.8%	-20.0%
Cc1ccc(-c2nc(CCNc3ncccc3C#N)co2)cc1	-29.9%	98.7%[activator]
N#Cc1c(N)n[nH]c1CCCNC(=O)c1ccccc1-c1ncc(-c2ccccc2)o1	205.1%[activator]	132.4%[activator]
COc1ccc(NC(=O)CN2C(=O)COc3ccc(S(=O)(=O)Nc4ccccc4)cc32)cc1	71.2%[activator]	-6.6%
CCOC(=O)C1CCN(C(=O)C(C)OC(=O)c2nn(CC)c(=O)c3ccccc23)CC1 (centres undefined)	41.3%[activator]	0.0%
N#CCCNC(=O)COC(=O)/C=C/c1cccc2cccnc12	1.9%	2.1%
Going on with the list.
SMILES	StopGo RLuc	2A firefly
Cc1ccc(CNC(=O)[C@H](CC(C)C)NC(=O)N2CCn3c2nc2ccccc23)cc1	-6.5%	-19.5%
O=S(=O)(c1ccc(Br)s1)N1CCN(c2cccc(C(F)(F)F)c2)CC1	-11.8%	-19.0%
CCCCNC(=O)C1CCN(C(=O)c2ccc(C(F)(F)F)cc2)CC1	6.5%	4.4%
COc1ccc(C)cc1NC(=O)CC(=O)Nc1ccc2nc3n(c(=O)c2c1)CCCCC3	-3.6%	8.8%
CCC(CC)NC(=O)COC(=O)c1cc(-c2ccc(C)o2)nc2ccccc12	-5.7%	49.5%[activator]
O=C(COc1cc(F)cc(F)c1)NC1CCS(=O)(=O)C1 (centres undefined)	-4.7%	-8.5%
CC(C)CCNCCCCCN	-0.2%	-3.1%
COc1ccc(OC)c(CCNC(=O)C2=C(C)C(=O)OC23CCC(C)CC3)c1 (centres undefined)	0.0%	0.0%
CN(C(=O)CSc1nc2c(c(=O)[nH]1)CCCC2)c1ccccc1	-0.9%	-0.1%
CCCCNC(=O)Cn1ncc2c(C)n(Cc3cccc(Cl)c3)c(C)c2c1=O	-9.9%	-9.6%
CCc1ccc(C2C=C(c3ccc(Br)cc3)Nc3ncnn32)cc1 (centres undefined)	-1.8%	6.1%
COc1ccc(-c2nc3ccccc3o2)cc1NC(=O)COc1c(C)cc(Cl)cc1Cl	-0.2%	47.9%[activator]
Cc1cc(Br)ccc1NC(=O)CNC(=O)CCc1ncc(-c2ccc(F)cc2)o1	-12.5%	0.0%
O=C(Nc1c(NC2CCCCC2)c2ccccc2oc1=O)c1ccc(C(F)(F)F)cc1	-7.3%	-12.0%
S=C(NCc1ccc(Cl)cc1)Nc1ccc(Br)cc1	-3.4%	28.6%
Cc1oc(-c2ccccc2)nc1CC(=O)Nc1cccc(C(N)=O)c1	50.7%[activator]	0.0%
CCN(C(=O)C(=O)c1c(C)n(C)c2ccccc12)c1ccc(OC)cc1	38.0%[activator]	8.7%
Cc1nc2sc(C(=O)Nc3ccc(F)cc3)c(N)c2c(-c2ccc(Br)cc2)c1C(=O)Nc1ccc(Cl)cc1	5.5%	69.2%[activator]
Cc1cc(-c2nc3ncccc3o2)ccc1NC(=O)CC12CC3CC(CC(C3)C1)C2	3.6%	13.3%
CCOc1ccc(NC(=O)c2cc3c(s2)-c2ccccc2OC3)cc1	31.8%	43.4%[activator]
CC1CCN(C(=O)C2COc3ccccc3C2)CC1 (centres undefined)	-2.2%	?
O=C(O)c1cccc(COc2cccc(Cl)c2)c1	2.7%	?
CCOc1cc2ccccc2cc1C(=O)Nc1nnc(C)s1	1.4%	15.6%
COc1ccc(Cn2c(CO)cnc2SCC(=O)NCc2ccco2)cc1	5.0%&-8.3%	7.0%&-3.7%
COC(=O)Oc1ccc2c(=O)c(Oc3cccc(C)c3)coc2c1	30.1%	162.8%[activator]
CCOc1ccc(-c2nc(CSc3nc4c(=O)[nH]cnc4n3C)c(C)o2)cc1OC	71.9%[activator]	53.3%[activator]
O=C(Cc1ccc(Cl)cc1)NC1C2CC3CC(C2)CC1C3 (centres undefined)	15.2%	0.0%
CCc1ccc(NC(=O)Cn2c(=O)c3cc(Cl)ccc3n3nncc23)cc1	-16.7%	-7.2%

Shown with two lines to a compound: 20 of the compounds above
Every second line gives: StopGo RLuc, 2A firefly
O=C(COc1cc(F)cc(F)c1)NC1CCS(=O)(=O)C1 (centres undefined)
  -4.7%, -8.5%
CC(C)CCNCCCCCN
  -0.2%, -3.1%
COc1ccc(OC)c(CCNC(=O)C2=C(C)C(=O)OC23CCC(C)CC3)c1 (centres undefined)
  0.0%, 0.0%
CN(C(=O)CSc1nc2c(c(=O)[nH]1)CCCC2)c1ccccc1
  -0.9%, -0.1%
CCCCNC(=O)Cn1ncc2c(C)n(Cc3cccc(Cl)c3)c(C)c2c1=O
  -9.9%, -9.6%
CCc1ccc(C2C=C(c3ccc(Br)cc3)Nc3ncnn32)cc1 (centres undefined)
  -1.8%, 6.1%
COc1ccc(-c2nc3ccccc3o2)cc1NC(=O)COc1c(C)cc(Cl)cc1Cl
  -0.2%, 47.9%[activator]
Cc1cc(Br)ccc1NC(=O)CNC(=O)CCc1ncc(-c2ccc(F)cc2)o1
  -12.5%, 0.0%
O=C(Nc1c(NC2CCCCC2)c2ccccc2oc1=O)c1ccc(C(F)(F)F)cc1
  -7.3%, -12.0%
S=C(NCc1ccc(Cl)cc1)Nc1ccc(Br)cc1
  -3.4%, 28.6%
Cc1oc(-c2ccccc2)nc1CC(=O)Nc1cccc(C(N)=O)c1
  50.7%[activator], 0.0%
CCN(C(=O)C(=O)c1c(C)n(C)c2ccccc12)c1ccc(OC)cc1
  38.0%[activator], 8.7%
Cc1nc2sc(C(=O)Nc3ccc(F)cc3)c(N)c2c(-c2ccc(Br)cc2)c1C(=O)Nc1ccc(Cl)cc1
  5.5%, 69.2%[activator]
Cc1cc(-c2nc3ncccc3o2)ccc1NC(=O)CC12CC3CC(CC(C3)C1)C2
  3.6%, 13.3%
CCOc1ccc(NC(=O)c2cc3c(s2)-c2ccccc2OC3)cc1
  31.8%, 43.4%[activator]
CC1CCN(C(=O)C2COc3ccccc3C2)CC1 (centres undefined)
  -2.2%, ?
O=C(O)c1cccc(COc2cccc(Cl)c2)c1
  2.7%, ?
CCOc1cc2ccccc2cc1C(=O)Nc1nnc(C)s1
  1.4%, 15.6%
COc1ccc(Cn2c(CO)cnc2SCC(=O)NCc2ccco2)cc1
  5.0%&-8.3%, 7.0%&-3.7%
COC(=O)Oc1ccc2c(=O)c(Oc3cccc(C)c3)coc2c1
  30.1%, 162.8%[activator]

Source: PubChem
